# Compound activity deposited in PubChem BioAssay by National Center for Advancing Translational Sciences (NCATS).
# 2A firefly = FMDV 2A StopGo reporter, firefly signal. Potency, µM (highest dose often 57.5 µM), for the others: at the top dose signal change, negative = less light. AID 1745856. hit rate 0.23% among 120,000. HEK cells with a luciferase reporter of 2A StopGo recoding; active = well fitted falling curve with a large enough effect; inconclusive = small, poorly fitted or top-dose-only effect; inactive = no such curve, though single readings can be large or run the other way; also: nearly all actives have a fitted effect of over 60% in size; overnight with compound
# 2A Renilla = FMDV 2A StopGo reporter, Renilla signal. HEK cells with a luciferase reporter of 2A StopGo recoding. Potency, µM (series often up to 57.5 µM), for the others: top-dose signal change, negative = less light. hit rate 0.32% among 120,000. AID 1745857; active means well fitted falling curve with a large enough effect; inconclusive means small, poorly fitted or top-dose-only effect; inactive means no such curve, though single readings can be large or run the other way; also: nearly all actives have a fitted effect of over 55% in size; overnight with compound
# * hit, by the source's call; ? = inconclusive; & = joins results of further samples; [ ] = dose if it differs, or a comment. % is scaled to controls: 0 for no effect and ±100 for the full control effect; potency is read from the fitted curve at half-maximal effect.
# Each structure is followed by: 2A firefly, 2A Renilla
- COc1ccc(CNc2oc(COc3ccccc3F)nc2C#N)cc1
    43.2%[activator], 13.0%
- N#C/C(=C/c1ccc(OC(F)F)cc1)C(=O)Nc1ccccc1Oc1ccccc1
    0.0%, 24.0%
- CCc1nn2c(=O)cc(CNc3cccc(C(=O)NCC(F)(F)F)c3)nc2s1
    -3.0%, -13.1%
- O=C(CC1CC2CCC1C2)NC12CC3CC(CC(C3)C1)C2 (stereo not given)
    1.8%, -5.7%
- CCOC(=O)c1ccc(Oc2coc3cc(OC(=O)N(CC)CC)ccc3c2=O)cc1
    -5.3%, ?
- Cc1cc(C(F)(F)F)n2nc(-c3ccc(Br)cc3)cc2n1
    -3.8%, -5.2%
- COc1ccc(S(=O)(=O)NCCC(C)C)c2cccnc12
    10.2%, -48.4%
- Fc1ccc(COc2ccc3ccccc3c2CNCc2cccnc2)cc1
    -7.9%, -8.2%
- CCN(CC)CCN(C(=O)c1ccco1)c1nc2ccc(F)cc2s1
    87.1%[activator], 1.3%
- O=C(O)Cc1cc(Cl)c2c(c1)OCCCO2
    -4.6%, ?
- CCOC(=O)C1CCN(C(=O)C2CCN(S(=O)(=O)c3c(C)noc3/C=C/c3ccc(C)cc3)CC2)CC1
    0.2%, 14.3%
- COc1ccc(-c2cc3ccc(OC)cc3oc2=O)cc1
    226.7%[activator], 11.2%
- CC(C)CCNC(=S)Nc1cccc(C(F)(F)F)c1
    -97.7%, -73.0%
- COc1ccccc1CCNC(=O)C1(c2cccs2)CCOCC1
    3.5%, 15.5%
- Cn1c(C(=O)N2CCNC(=O)C2)cc2ccccc21
    -0.7%, -5.9%
- CC(C)NC(=S)NCc1cccc(Cl)c1
    3.4%, 91.4%[activator]
- COc1ccc(Nc2nc(C(=O)OCC(=O)c3ccc(Cl)cc3)cs2)cc1
    28.5%, -14.5%
- O=C(/C=C/c1ccco1)Nc1ccc2oc(-c3ccccc3F)nc2c1
    20.5%, -2.8%
- Cc1ccc(Nc2nc3ccccc3nc2NS(=O)(=O)c2ccccc2)cc1F
    4.1%, 5.9%
- CCn1c(=O)cc(SCC(=O)NCc2ccccc2OC)c2ccccc21
    -6.9%, 13.1%
- O=C(CSc1nc2ccc(NC(=O)c3ccc(Cl)cc3)cc2s1)NC1CCCCC1
    25.5%, 4.3%
- Cn1cc(C(=O)OCC(=O)Nc2ccccc2)c2ccccc21
    0.5%, -4.8%
- CN(C)C(=O)Cc1ccccc1
    7.8%, -0.3%
- O=C(CCS(=O)(=O)c1ccc(F)cc1)Nc1ccc(OC(F)F)c(Cl)c1
    53.4%[activator], -26.2%
- CCOc1ccccc1NC(=O)CSc1ncc(S(=O)(=O)c2ccc(C)c(C)c2)c(N)n1
    -27.9%, 10.0%
- Cc1ccccc1NC(=O)COC(=O)c1cc(C(C)C)nc2ccccc12
    0.0%, 0.2%
- Cc1c(Cl)ccc2sc(N3CCN(C(=O)C(C)C)CC3)nc12
    -24.0%, ?
- Cc1nnc(SCC(=O)NCc2ccccc2Cl)c2nn(-c3ccccc3)c(C)c12
    5.1%, -14.0%
- Cc1ccc(NC(=O)CSc2ncn[nH]2)cc1C
    11.2%, 6.3%
- CC(Sc1ccccc1)C(=O)OCc1nc(N)nc(Nc2ccc(Cl)cc2)n1 (stereo not given)
    0.0%, 3.9%
- CC(C)CNC(=O)NC1=C(C#N)C(C)(C)Cc2ccccc21
    5.4%, 106.5%[activator]
- Fc1ccc(COc2cccc(-c3nnco3)c2)cc1
    93.2%[activator], 6.4%
- CCOC(=O)c1cnc2c(ccc3ccccc32)c1Nc1ccc(OCC)cc1
    -17.3%, -11.5%
- CC(NCC(c1cccs1)c1c[nH]c2ccccc12)C(=O)NCc1ccccc1 (stereo not given)
    -5.7%, 35.5%[activator]
- CC(=O)c1ccc(NC(=O)CSc2nnc(NC(=O)NC3CCCCC3)s2)cc1
    84.6%[activator], -7.8%
- O=C(Nc1ccc(Cl)cc1)c1c2c(nc3ccccc13)CCCC2
    -4.8%, 4.5%
- Cc1cccc(-n2c3c(cc(C#N)c2=O)C(=O)CC(c2ccccc2)C3)c1C (stereo not given)
    -11.7%, -7.5%
- CN1C(=O)Cc2cc(S(=O)(=O)CCC(=O)Nc3ccc(OC(F)(F)F)cc3)ccc21
    -8.9%, -17.3%
- CN1C(=O)c2ccccc2Sc2ccc(NC(=O)N3CCN(c4ccccc4F)CC3)cc21
    -17.2%, -15.0%
- COc1ccc(-c2nn3c(=O)cc(CN4CCN(C(=O)COc5ccc(F)cc5)CC4)nc3s2)cc1
    -3.6%, -9.7%
- O=C(O)c1cc(I)cc(I)c1I
    12.9%, -4.1%
- CCOC(=O)c1cnc2ccc(Cl)cc2c1Nc1ccc(N2CCOCC2)cc1
    5.4%, -12.7%
- COc1ccccc1NC(=O)C(C)n1cnc2c1c(=O)n(C)c(=O)n2C (stereo not given)
    23.9%, 5.6%
- Cc1ccc(Cl)cc1N1CCN(C(=O)COc2cc(=O)n(C)c3ccccc23)CC1
    -20.8%, -3.2%
- COc1ccc(C(=O)Nc2cc3c(cc2C#N)OCO3)cc1S(=O)(=O)N1CCN(C)CC1
    1.2%, 9.6%
- Cc1ccc(C)c(C(NC(=O)C2CCCCC2)c2cccnc2)c1 (stereo not given)
    -7.1%, 17.6%
- FC1(F)C(F)(F)C(F)(F)C2(F)C(F)(F)C(F)(F)C(F)(F)C(F)(F)C2(F)C1(F)F (stereo not given)
    -5.6%[11.5 µM], -8.7%
- CC(=O)Nc1ccc(-c2csc(NC(C)C)n2)c(F)c1
    0.0%, 29.3%
- Oc1cccc(-c2nc(-c3cccs3)c(-c3cccs3)[nH]2)c1
    -5.1%, 1.9%
- O=C(Nc1cccnc1)c1cc(-c2ccc(Cl)cc2)on1
    48.8%[activator], 6.1%
- CC1=C(C(=O)OC(C)(C)C)C(c2ccccc2F)C(C#N)=C(N)O1 (stereo not given)
    22.2%, 17.3%
- COC(=O)CC1Oc2ccc(C)cc2-n2cc(-c3ccc(F)cc3)nc21 (stereo not given)
    2.1%&-6.4%, -1.2%&-5.9%
- CCOC(=O)C1C(=O)C=C(c2ccc(Br)cc2)CC1c1ccccc1 (stereo not given)
    10.2%, 16.6%
- CCNc1nc(SC(C)C(=O)NC)nc2ccccc12 (stereo not given)
    0.0%, 3.7%
- O=C(CSC1=NS(=O)(=O)c2ccccc2N1Cc1ccccc1)Nc1cccc(Cl)c1
    ?, -24.3%
- CCCC(=O)Nc1ccc(-c2nc(NC(C)(C)C)sc2C)cc1
    26.2%, 8.6%
- COc1ccc(NC(=O)C2CCCN2S(=O)(=O)c2ccc3c(c2)CCCC(=O)N3)cc1Cl (stereo not given)
    -23.0%, -24.6%
- COc1ccc(Cl)cc1NC(=O)N1CCN(Cc2cc(=O)n3nc(-c4ccccc4)sc3n2)CC1
    -3.3%, -7.3%
- CC(OC(=O)c1cc(=O)[nH]c2ccccc12)C(=O)N(C)c1ccccc1 (stereo not given)
    3.9%, 24.0%
- O=C(CSc1ccc(Br)cc1)c1ccc(C2CCCCC2)cc1
    ?, -11.4%

# (cont.)
# Each structure is followed by: 2A firefly, 2A Renilla
- Cc1cc(SCC(=O)NC2CCCC2)nc2ccccc12
    -2.0%, 3.3%
- Cc1cc(C(=O)CSc2nc3cc([N+](=O)[O-])ccc3o2)c(C)n1C
    6.2%, 15.7%
- Cc1ccc(CNC(=O)N[C@@H](Cc2ccccc2)C(=O)O)cc1
    6.6%, 0.0%
- O=C(c1ccco1)N1CCN(C(=O)C2CCCN(c3nnc(N4CCCC4=O)s3)C2)CC1 (stereo not given)
    4.9%, 2.6%
- CCOc1ccccc1NC(=O)c1nc2nc(C)cc(C(F)F)n2n1
    -7.0%, -4.1%
- CCCn1c(=O)n(CC(=O)Nc2ccc(Cl)cc2)c(=O)c2c1nc(C)n2CCOC
    11.1%, 1.0%
- O=C(Nc1ccc2oc(-c3cccnc3)nc2c1)c1cccc(OCc2ccccc2)c1
    9.5%, -18.2%
- NC(=O)C1(c2ccccc2)CCCC1
    1.8%, 2.4%
- CCCCC(=O)OC1=C(C(=O)c2ccccc2)N(CCC)S(=O)(=O)c2ccccc21
    -7.1%, 20.2%
- c1cc(-c2noc(CSc3nnnn3C3CC3)n2)cs1
    58.3%[activator], -4.1%
- CCc1c(C)sc(NC(=O)c2ccccc2C)c1C#N
    100.8%[activator], 18.0%
- Cc1csc2nc(COC(=O)CNC(=O)c3ccccc3Cl)cc(=O)n12
    2.4%, 6.4%
- CCC(Sc1nc2ncccc2[nH]1)C(=O)Nc1ccc(C)c(Cl)c1 (stereo not given)
    -6.7%, 13.8%
- CCOc1ccccc1NC(=O)C1CCN(S(=O)(=O)c2ccc3[nH]c(=O)ccc3c2)CC1
    -23.7%, -18.4%
- Cc1ccc2nc(NC(=O)c3nn(C(C)C)c(=O)c4ccccc34)sc2c1
    14.4%, -0.1%
- COc1ccc(N2CCN(c3nc4ccccc4n4c(C)nnc34)CC2)cc1
    -17.7%, -8.5%
- c1ccc(N2CCN(c3nc(N4CCCC4)nc4nccnc34)CC2)cc1
    -6.2%, -22.7%
- Cc1nc2cc(NC(=O)C3CC(=O)N(c4cccc(Br)c4)C3)ccc2o1 (stereo not given)
    60.3%[activator], 11.0%
- COc1ccc(Cn2c(C(=O)O)c(CNC3CCC(C)CC3)c3ccc(C)cc32)cc1 (stereo not given)
    3.3%, 20.7%
- CC(C)N1CCC(NC(=O)c2ccc3ccccc3c2)CC1
    0.7%, -16.4%
- Cc1ccc(CNC(=O)c2cc3c(=O)n(Cc4ccco4)ccc3nc2C)cc1
    -18.9%, -7.1%
- O=C(NCCN1CCN(c2cccc(Cl)c2)CC1)Nc1ccccc1C(F)(F)F
    -17.6%, -10.2%
- COc1ccc(OC)c(-n2cnc3cc(C(=O)NC4CC4)ccc3c2=O)c1
    34.7%[activator], 7.9%
- Cc1cccc(CS(=O)(=O)N2CCC(C(=O)Nc3ccccc3C(=O)NC(C)(C)C)CC2)c1
    2.5%, 39.1%[activator]
- Cc1nnc(NCc2ccc(Cl)cc2)c2c1nnn2Cc1ccc(F)cc1
    -22.6%, 2.1%
- CCN(CC)S(=O)(=O)c1ccc2c(c1)nc(CN(C)C(=O)Nc1ccc(F)cc1)n2C
    53.1%[activator], 65.2%[activator]
- Cc1nnc(SCC(=O)c2c[nH]c3ccccc23)s1
    188.3%[activator], 27.4%
- Cc1cc(Cl)ccc1OCC(=O)N(Cc1ccc(N(C)C)cc1)C1CCS(=O)(=O)C1 (stereo not given)
    -19.4%, -5.4%
- COc1cc2c(cc1OC)C(COc1cccc(C(F)(F)F)c1)N(C(=O)c1ccc(S(=O)(=O)N3CCCC3)cc1)CC2 (stereo not given)
    -16.0%, 20.1%
- Cn1cnc2c1c(=O)n(CC(=O)N(CCc1cccs1)Cc1cccs1)c(=O)n2C
    -8.1%, -4.2%
- CC1(C)CC(=O)C(C(c2ccc(Cl)cc2Cl)C2C(=O)CC(C)(C)CC2=O)C(=O)C1
    5.0%, 0.0%
- CCOc1ccc(CNC(=O)CN2N=C(c3ccccc3)CCC2=O)cc1OC
    9.1%, -14.1%
- CCCCCn1c(CCCNC(=O)c2ccccc2OC)nc2ccccc21
    -20.8%, -4.6%
- O=C(CN1C(=O)S/C(=C\c2ccccc2)C1=O)Nc1ccc2oc(=O)ccc2c1
    1.5%, 3.5%
- Cc1cccc(-c2noc(CN(C3CCCCC3)S(=O)(=O)c3ccc(F)cc3)n2)c1
    9.3%, -5.5%
- CCc1ncncc1C(=O)O
    -3.5%, 8.8%
- CC(Sc1ccccc1Cl)C(=O)O (stereo not given)
    14.3%, -3.2%
- CCN(CC)S(=O)(=O)c1ccc(NCc2cc(C)ccc2C)cc1
    10.7%, 0.1%[1.06 µM]
- C/C(CC(C)C)=N\NC(=O)CC#N
    9.2%, 4.4%
- CCC(C)C(C)(COC(N)=O)COC(N)=O (stereo not given)
    -12.9%, -5.4%

# Not a retest: an excerpt of the list.
# Each structure is followed by: 2A firefly, 2A Renilla
- Cc1ccc(CNC(=O)N[C@@H](Cc2ccccc2)C(=O)O)cc1
    6.6%, 0.0%
- O=C(c1ccco1)N1CCN(C(=O)C2CCCN(c3nnc(N4CCCC4=O)s3)C2)CC1 (stereo not given)
    4.9%, 2.6%
- CCOc1ccccc1NC(=O)c1nc2nc(C)cc(C(F)F)n2n1
    -7.0%, -4.1%
- CCCn1c(=O)n(CC(=O)Nc2ccc(Cl)cc2)c(=O)c2c1nc(C)n2CCOC
    11.1%, 1.0%
- O=C(Nc1ccc2oc(-c3cccnc3)nc2c1)c1cccc(OCc2ccccc2)c1
    9.5%, -18.2%

# (list continues)
# Each structure is followed by: 2A firefly, 2A Renilla
- CCCCCCCOc1ccc(-c2ccc(C3CCC(CC)CC3)cn2)cc1F (stereo not given)
    ?, -7.0%[1.06 µM]
- COc1ccc(NC(=O)c2ccc(NC(=O)C3(C#N)CCCC3)cc2)cc1
    11.2%, 2.8%
- Cc1ccc(Cl)cc1Nc1nc(N)c(C(=O)c2ccccc2F)s1
    22.4%, -11.9%
- CC(C)c1ccc(/C=N/NC(=O)C2CCCCC2)cc1
    242.7%[activator], 35.4%[activator]
- O=C(c1ccccc1F)N1CCN(C(=O)c2cc(Br)ccc2Cl)CC1
    3.4%, 14.7%
- Cc1oc2ncnc(N3CCC(C(=O)Nc4ccc(Cl)cc4F)CC3)c2c1C
    4.1%, 2.4%
- COc1cccc(N2CCN(C(=O)Cn3nc(C)n4c(cc5c(OC)cccc54)c3=O)CC2)c1
    -4.2%, -9.4%
- CC(=O)NCCNc1nc2c(-c3ccc(C)cc3)nnn2c2ccccc12
    38.3%[activator], -3.5%
- COc1ccc2cc(CNc3ccc(C)cc3)c(=O)n(CC(=O)Nc3ccc(C)cc3Cl)c2c1
    -3.9%, -8.9%

# Only part of the results is shown (hit frequency here may not be typical).
